Assay outcomes from PubChem BioAssay.
VDR inhibitor = inhibitors of human vitamin D receptor. P11473. Potency, µM, for inactives: max response, negative = inhibition, actives largely listed as inhibitors. VDR-SRC2-3 peptide fluorescence polarization, 2 h. AID 504847. 0.93% of 400,000 active; active = well fitted inhibition curve with a large enough effect; inconclusive = small, poorly fitted or top-dose-only effect, or another doubt; inactive = no such curve, though single readings can be large or run the other way; also: series mostly up to about 120 µM
Target sequence (P11473 whole entry, looked up): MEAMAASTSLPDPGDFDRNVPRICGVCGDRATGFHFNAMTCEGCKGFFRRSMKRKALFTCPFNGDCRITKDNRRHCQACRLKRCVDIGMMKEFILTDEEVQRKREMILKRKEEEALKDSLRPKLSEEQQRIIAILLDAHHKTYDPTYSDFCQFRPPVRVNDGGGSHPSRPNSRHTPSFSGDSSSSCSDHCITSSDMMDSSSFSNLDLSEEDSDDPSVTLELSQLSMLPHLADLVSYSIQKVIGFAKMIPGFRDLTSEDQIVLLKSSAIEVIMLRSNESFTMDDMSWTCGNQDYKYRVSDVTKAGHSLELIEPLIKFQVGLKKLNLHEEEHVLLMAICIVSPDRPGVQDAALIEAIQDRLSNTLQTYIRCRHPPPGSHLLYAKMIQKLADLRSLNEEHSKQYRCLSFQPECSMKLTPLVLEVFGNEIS
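Fluorescence polarization assay of small-molecule disruption of VDR binding to coregulator peptide SRC2-3. Compounds and controls pin-transferred, then read after 2 h incubation at ambient room temperature.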
Numbers without * were called inactive; ? = inconclusive. % is scaled to controls: 0 for no effect and ±100 for the full control effect; potency is read from the fitted curve at half-maximal effect. An excerpt; the hit share may differ from the screen's.

SMILES | VDR inhibitor
CCOc1ccc2oc(=O)cc(CN3CCN(c4ccc(OC)cc4)CC3)c2c1 | 5%
O=C(CCN1C(=O)S/C(=C\c2ccc(F)cc2)C1=O)Nc1ccc(C(=O)O)c(O)c1 | ?
c1ccc(CCCN2CCOCC2)cc1 | -5%
CN(Cc1ccccc1)c1nc2c(S(=O)(=O)c3ccccc3)nnn2c2ccsc12 | 23%
CC(C)n1c(O)c(N=NC(=O)Cc2csc(N3CCOCC3)n2)c2ccccc21 | -4%
Cc1cs/c(=N\N=C\c2cccc([N+](=O)[O-])c2)n1Cc1ccco1 | -9%
CC(NC(=O)COC(=O)Cc1cccs1)c1ccc(F)cc1 (stereo unspecified) | -11%
O=C(CNS(=O)(=O)N1CCOCC1)N/N=C/c1cccnc1 | -3%
O=C(NCC(=O)N(CC1CCCO1)C(C(=O)NC1CCCCC1)c1ccc(F)cc1)c1ccco1 (stereo unspecified) | 5%
COc1ccc(N2CC(C(=O)N[C@@H](C)C(=O)N[C@H](CO)c3ccccc3)CC2=O)cc1 (stereo partly specified) | -9%
COc1cc(/C=C(\C#N)c2nc3ccccc3n2C)cc(OC)c1O | -21%
CC1CCCC(C)N1C(=O)CSc1nnc(-c2ccco2)n1C (stereo unspecified) | 9%
COc1cccc(Cn2cccc(NC(=O)Nc3ccccc3C)c2=O)c1 | -6%
COc1ccc(CCNC(=O)Cn2c(=O)n(-c3ccc(OC)c(OC)c3)c(=O)c3ccccc32)cc1OC | -4%
Cc1ccc(NC(=O)C(C)Sc2n[nH]c(CNc3ccccc3)n2)cc1 (stereo unspecified) | 2%
CC(Sc1ccccc1)C(=O)NNC(=O)c1csc(N2CCOCC2)n1 (stereo unspecified) | -10%
CCOc1cc(/C=N/N2CCN(Cc3ccccc3)CC2)ccc1O | -4%
CCN(CC(=O)Nc1ccc(NC(C)=O)cc1)C(=O)c1cc2ccccc2oc1=O | 9%
CCC(=O)N1CC(C)C(=O)Nc2ccccc21 (stereo unspecified) | -2%
O=C(CC(C(=O)NCc1ccccc1)c1nc2ccccc2c(=O)[nH]1)NCc1ccccc1 (stereo unspecified) | -26%
O=C(CCCC(=O)NNC(=O)Nc1ccccc1)NNC(=O)Nc1ccccc1 | 9%
O=C(NCC(c1ccco1)N1CCN(c2ccccc2)CC1)C(=O)NC1CC1 (stereo unspecified) | -14%
O=C(N/N=C/C(Cl)=C/c1ccccc1)c1ccco1 | -19%
CC(C)n1c(=N)c(C(=O)NCc2cccnc2)cc2c(=O)n3ccccc3nc21 | 14%
Cc1cccc(NC(=O)Nc2ccc(Cl)cc2)n1 | -15%
COc1ccc(CCC(C)NCc2ccc(Cl)c(Cl)c2)cc1 (stereo unspecified) | 14%
Cc1ccc(C(=O)OCC(=O)N2CCCC2)cc1 | 15%
Cc1ccc(NC(=O)COC(=O)CCC2CCCC2)c(Br)c1 | -20%
O=C(/C=C/c1c(F)cccc1Cl)Nc1ccc(S(=O)(=O)Nc2ncccn2)cc1 | -6%
CC(C)(C)CC(C)(C)N1CNC(=S)NC1 | -7%
O=C(O)CN1CCc2ccccc2C1 | ?
Clc1ccccc1N1CCN(Cc2ccc(Br)o2)CC1 | 7%
COCc1nnc(NC(=O)CSCc2ccccc2)s1 | -5%
CC(C)c1ccc(NC(=O)C(=O)c2cn(CC(=O)N3CCCCC3)c3ccccc23)cc1 | 2%
CC1CCCC(C)N1C(=O)CSc1ncccn1 (stereo unspecified) | -10%
COc1ccc(-n2c(SCC(=O)NCc3cccs3)nnc2-c2ccoc2C)cc1 | -8%
CC1CCCCC1NC(=O)CSc1nc2ccccc2c(=O)n1Cc1ccco1 (stereo unspecified) | 1%
CC12CCC(=O)N1C(C(=O)Nc1cc(C(F)(F)F)ccc1N1CCCCC1)CS2 (stereo unspecified) | -13%
COc1ccc(NC2CCCN(C(=O)c3cc4ncccn4n3)C2)cc1 (stereo unspecified) | 19%
CCCCOc1ccc(CNC(=O)C2CCCN(c3nnc(-n4c(C)ccc4C)s3)C2)cc1 (stereo unspecified) | 10%
CCOc1cc(OCC)cc(C(=O)NCc2ccco2)c1 | ?
O=C(CNC(=O)c1ccccc1F)NCCN1C(=O)S/C(=C\c2ccccc2Cl)C1=O | -5%
Cc1ccc(CNC(=O)C2CC3Cn4c(nc5ccccc54)C3N2C)o1 (stereo unspecified) | -15%
COc1ccc(Sc2nc(-c3ccccc3)ncc2OC)cc1 | 8%
CN(Cc1cccc(F)c1)C(=O)c1ccc2c(=O)n3c(nc2c1)CCC3 | 9%
O=c1cc(-c2ccncc2)oc2ccccc12 | -7%
Cc1ccc(/C=C/C(=O)OC(C)C(=O)Nc2ncc(Cl)cc2Cl)o1 (stereo unspecified) | -5%
CC(=O)c1ccc(N2CCN(C(=O)CCC(=O)c3cccs3)CC2)cc1 | -8%
COc1ccc(-c2csc(NC(=S)NC(=O)c3cccs3)n2)cc1OC | -5%
CCc1ccc(NC(=O)C2C3/C=C\CCCCC32)cc1 (stereo unspecified) | -18%
COc1cccc(NC(=O)C(Sc2nnc(Nc3ccccc3C)s2)c2ccccc2)c1 (stereo unspecified) | -11%
CN(CC(=O)Nc1cccc(F)c1)C(=O)CSc1ccccc1F | 0%
CC1=Nc2ccccc2N=C(N)C1c1ccccc1 (stereo unspecified) | -8%
O=C(Nc1cccc2ncccc12)c1ccc(Cl)cc1 | -7%
CCOC(=O)c1c(NS(C)(=O)=O)sc2c1CCC(C)C2 (stereo unspecified) | -15%
Brc1ccc(-n2cnc(-c3ccccc3)c2)cc1 | 4%
CCOc1ccccc1CN1CCc2nc(N3CCN(C)CC3)ncc2C1 | 8%
Cc1ccc(Cl)cc1NC(=O)C(=O)N1CCCCC1 | -15%
CCOC(=O)C[n+]1c(C)ccc2c1CCC2 | 0%
O=C(CCS(=O)(=O)Cc1cccc(Cl)c1)NCCc1ccccc1 | -12%

(more compounds)
SMILES | VDR inhibitor
O=C(NCC(O)c1ccccc1)c1ccc(Cl)c(S(=O)(=O)N2CCCCC2)c1 (stereo unspecified) | 6%
CCN(C1=NS(=O)(=O)c2ccccc21)N(CC)S(=O)(=O)c1ccc(C)cc1 | -3%
COc1ccc(C(=O)NCCN2CCOCC2)cc1[N+](=O)[O-] | 17%
O=C(CSc1nc(-c2cccs2)cc(C(F)(F)F)n1)Nc1cc(OCC(F)(F)F)cc([N+](=O)[O-])c1 | 18%
Cc1nn(CC2CC2)c(=O)n1-c1ccc(F)cc1 | 8%
O=C(NCCN1CCOCC1)c1cccnc1SCc1ccccc1Cl | 5%
CCOC(=O)c1cccc(NC(=O)c2cc3c(-c4cccc(OC)c4)nn(C)c3s2)c1 | -1%
CC(=O)Nc1ccc(N/C=C2/CCCC2=O)cc1 | 11%
Cc1ccc(/C(O)=C/c2nc3cc(C)ccc3oc2=O)cc1 | 17%
Cc1occc1C(=O)Nc1cccc(C(=O)NCc2ccccc2)c1 | -5%
FC(F)(F)c1cccc(-n2cc(-c3ccccc3)c3c(N4CCCCC4)ncnc32)c1 | -2%
O=C(COC(=O)c1ccco1)NCC1CCCCC1 | 2%
COc1cc2c(cc1OC)-c1nnc(-c3cccs3)n1C1(CCCC1)C2 | 0%
O=C(Nc1ccc(Cl)cc1)Nc1ccc(N2CCC(C(F)(F)F)CC2)nc1 | 3%
O=C(CCN1C(=O)/C(=C\c2ccccc2)SC1=S)N1CCCCC1 | 9%
Cc1cc(C(=O)N/N=C/c2cc(Cl)cc([N+](=O)[O-])c2O)n[nH]1 | -2%
COc1ccccc1N1CCN(c2cc(C)nc3nc(-c4ccc(C)cc4)nn23)CC1 | 12%
CCCCCc1cc(=O)oc2c(C(CCN3CCCCC3)c3ccc(OC)cc3)c(OC)cc(OC)c12 (stereo unspecified) | ?
O=c1c2ccccc2nc(-c2ccccc2Cl)n1O | -10%
Cc1ccc(NC(=O)C2CCN(C(=O)c3cnn(-c4ccccc4)c3-n3cccc3)CC2)cc1 | 11%

Grouped by structure, those above with a CF3 group
SMILES | VDR inhibitor
CC12CCC(=O)N1C(C(=O)Nc1cc(C(F)(F)F)ccc1N1CCCCC1)CS2 (stereo unspecified) | -13%
O=C(CSc1nc(-c2cccs2)cc(C(F)(F)F)n1)Nc1cc(OCC(F)(F)F)cc([N+](=O)[O-])c1 | 18%
FC(F)(F)c1cccc(-n2cc(-c3ccccc3)c3c(N4CCCCC4)ncnc32)c1 | -2%
O=C(Nc1ccc(Cl)cc1)Nc1ccc(N2CCC(C(F)(F)F)CC2)nc1 | 3%

Back to the main list, starting two compounds before the break.
SMILES | VDR inhibitor
O=c1c2ccccc2nc(-c2ccccc2Cl)n1O | -10%
Cc1ccc(NC(=O)C2CCN(C(=O)c3cnn(-c4ccccc4)c3-n3cccc3)CC2)cc1 | 11%
O=[N+]([O-])c1ccc(O)c(/C=N/n2c(-c3ccccc3)n[nH]c2=S)c1 | -14%
COc1ccc2nc3oc(C(=O)N4CCN(c5cc(C)ccc5C)CC4)cc3cc2c1 | -16%
Cc1nn(-c2ccc(Cl)nn2)c(=O)c2ccccc12 | 6%
CC(C)Cc1cc(C(=O)Nc2ccc(Br)cc2)no1 | 12%
COc1cc(/C=C/C(=O)OC(C)C(=O)Nc2c(C)n(C)n(-c3ccccc3)c2=O)ccc1O (stereo unspecified) | -4%
CCOc1ccc(Br)cc1S(=O)(=O)NC1=NCCCCC1 | -1%
COc1cccc(/C=C/C(=O)N2CC(C)OC(C)C2)c1OC (stereo unspecified) | 9%
NNC(=O)C(=O)Nc1ccc(O)cc1 | -4%
CCOC(=O)C1CCN(C(=O)C2CCN(S(=O)(=O)c3c(C)noc3C)CC2)CC1 | 7%
O=C(CCCN1C(=O)c2ccccc2C1=O)NC1CCCCCC1 | 20%
CC1(C)Nc2ccc(O)cc2-c2c1ssc2=S | ?
COc1ccc(C(=O)N2[C@@H](C(C)C)COc3cc(Br)ccc3S2(=O)=O)cc1 | -25%
CC1(C#CC[N+]2(C)CCCCC2)CCC2C(O1)c1ccccc1OC2(C)C (stereo unspecified) | -12%
O=C1C=C(c2ccccc2)C[C@@H](c2ccc(Cl)cc2)C1 | -10%
Cc1cc(Nc2ccc(Br)cc2)n2nc(-c3ccccc3C)nc2n1 | 2%
CCC(=O)Nc1c(S(=O)(=O)c2ccccc2)c2nc3ccccc3nc2n1Cc1ccccc1 | ?
CCN1CCc2c(sc(NC(=O)CSc3ccccc3)c2-c2nc3ccccc3s2)C1 | -8%
Cc1nc2n(c(=O)c1CCN1CCC(c3noc4cc(F)ccc34)CC1)CCCC2O (stereo unspecified) | -12%
Cc1ccc(C)c(OCCC(=O)Nc2ccccc2C(=O)NC2CC2)c1 | 10%
COc1cccc(-c2nc(S(=O)(=O)c3ccccc3)c(N3CCOCC3)o2)c1 | 1%

A draw from above in order of SMILES length, lowest first.
SMILES | VDR inhibitor
NNC(=O)C(=O)Nc1ccc(O)cc1 | -4%
Cc1cc(Nc2ccc(Br)cc2)n2nc(-c3ccccc3C)nc2n1 | 2%
CC1(C#CC[N+]2(C)CCCCC2)CCC2C(O1)c1ccccc1OC2(C)C (stereo unspecified) | -12%

Next part:
SMILES | VDR inhibitor
COc1cc(SC)ccc1C(=O)NCCOc1c(C)cc(C)cc1C | 4%
CCOc1ccccc1OCCCOc1ccc(C)cc1Br | 3%
CC(C)(C)C(=O)O/N=C(\N)c1ccc(Oc2cc(Cl)cc(Cl)c2)c([N+](=O)[O-])c1 | 9%
Cc1ccc(S/C(=N/S(=O)(=O)c2ccc(Cl)cc2)c2ccccc2)cc1 | ?
O=C(CS(=O)(=O)c1ccccc1)Nc1ccc(Cl)cn1 | -23%
CN(C)c1ccc(C(CNC(=O)c2ccccc2Cl)N2CCc3ccccc32)cc1 (stereo unspecified) | 5%
Cc1ccc([C@@H]2CC=C(C(=O)O)[C@H](c3ccc(Br)cc3)N2S(=O)(=O)c2ccccc2C)cc1 | ?
CCOC(=O)c1c(C)[nH]c(C(=O)COC(=O)c2ccccc2NC(=O)c2ccco2)c1C | -1%
NC(=O)c1ccc(NC(=O)COC(=O)C2(c3ccccc3F)CCCC2)cc1 | -7%
C=C1CSc2nc(=O)c3c4c(sc3n21)CCCC4 | -8%
COc1ccc(OCC(=O)N2CCCC2=O)c([N+](=O)[O-])c1 | -9%
CNC(=S)N(Cc1ccco1)Cc1cc2cc3c(cc2[nH]c1=O)OCCO3 | -22%
Cc1sc2nc(CSCC(=O)NC3(C#N)CCCCC3)[nH]c(=O)c2c1C | -7%
CCC(Sc1nc2cc(OC)c(OC)cc2c(=O)n1CCc1ccc(OC)c(OC)c1)C(=O)NCCOC (stereo unspecified) | 0%
CC1Cc2ccccc2N1C(=O)COC(=O)/C=C/c1cccc(F)c1 (stereo unspecified) | 13%
COc1ccc2c(-c3ccc(SC)cc3)c(-c3ccc(S(C)(=O)=O)cc3)sc2c1 | -6%
COc1cc(Br)c(C(C)NC(=O)c2ccccc2)cc1OC (stereo unspecified) | 8%
CC(=O)c1nnn(-c2ccc(Cl)cc2C#N)c1C | 17%
O=C(C1CC(c2ccc(F)cc2)=NO1)N1CCCc2ccccc21 (stereo unspecified) | 1%
CC(C)CC(NC(=O)C1CCC(C)CC1)C(=O)NCc1ccco1 (stereo unspecified) | -11%

Structures listed so far with a COOH group:
SMILES | VDR inhibitor
O=C(CCN1C(=O)S/C(=C\c2ccc(F)cc2)C1=O)Nc1ccc(C(=O)O)c(O)c1 | ?
O=C(O)CN1CCc2ccccc2C1 | ?
Cc1ccc([C@@H]2CC=C(C(=O)O)[C@H](c3ccc(Br)cc3)N2S(=O)(=O)c2ccccc2C)cc1 | ?

Next records.
SMILES | VDR inhibitor
CCCCNCCCOc1cccc(Cl)c1 | 1%
O=C(CSCSCC(=O)NCC1CCCO1)NCC1CCCO1 (stereo unspecified) | -1%
COc1ccc(CCNC(=O)CNC(=O)c2nn(-c3ccc(OC)c(OC)c3)c(=O)c3ccccc23)cc1OC | 15%
CC1CCCCC1NC(=O)COC(=O)COc1ccc(Cl)cc1 (stereo unspecified) | -3%
